# Screening data: PubChem BioAssay, National Center for Advancing Translational Sciences (NCATS)
# NS1 inh = blocks influenza NS1 protein function; S. cerevisiae slowed by influenza A NS1, growth recovery by OD600; Potency, µM (titrated, usually from 46.1 µM), for the others: at the highest dose activity, positive = more growth; 270,000 tested, 0.4% active; active means well fitted rising curve with a large enough effect; inconclusive means small, poorly fitted or top-dose-only effect; inactive means no such curve, though single readings can be large or run the other way; note: nearly all actives have a fitted effect of over 50% in size
#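 Compounds were scored for reversing the slow growth caused by influenza A NS1 in S. cerevisiae, measured by optical density at 600 nm. Assay medium contained 2% galactose at pH 6.0; NS1-free yeast of the same strain were the positive control.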
# RE007 growth inh = less growth of the S. pombe RE007 Vpr strain; 360,000 tested, 0.21% active; S. pombe RE007 Vpr strain, BacTiter-Glo ATP luminescence, 24 h; control for the full effect not named in the record; Potency, µM (top dose mostly 92.2 µM), for the others: at the highest dose activity change, negative = less growth; active = well fitted falling curve with a large enough effect; inconclusive = small, poorly fitted or top-dose-only effect; inactive = no such curve, though single readings can be large or run the other way;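 note: % is set by controls: 0 for no effect and ±100 for the full control effect; nearly all actives have a fitted effect of over 50% in size; the assay follows cell death caused by Vpr and the record does not say whether a fall means rescue or toxicity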
#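 Fission yeast RE007 carrying one integrated HIV-1 vpr copy, seeded at OD 0.01 in PMG+AL medium with 23 nL pinned compound. Grown 24 h at 30 degrees; viability read by BacTiter-Glo luminescence after 5 min.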
# Cruzain Triton = inhibitors of Trypanosoma cruzi cruzain with detergent | P25779 | purified cruzain, Z-FR-AMC fluorescence, 0.01% Triton | Potency, µM, for inactives: max response, negative = inhibition, hits mostly inhibitors | 200,000 tested, 0.43% active | AID 1478;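 note: plate controls were neutral wells for no effect and buffer without enzyme for full effect; nearly all actives have a fitted effect of over 40% in size; top concentration of the series not given in the record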
# Target sequence (P25779 123-467 limits assumed): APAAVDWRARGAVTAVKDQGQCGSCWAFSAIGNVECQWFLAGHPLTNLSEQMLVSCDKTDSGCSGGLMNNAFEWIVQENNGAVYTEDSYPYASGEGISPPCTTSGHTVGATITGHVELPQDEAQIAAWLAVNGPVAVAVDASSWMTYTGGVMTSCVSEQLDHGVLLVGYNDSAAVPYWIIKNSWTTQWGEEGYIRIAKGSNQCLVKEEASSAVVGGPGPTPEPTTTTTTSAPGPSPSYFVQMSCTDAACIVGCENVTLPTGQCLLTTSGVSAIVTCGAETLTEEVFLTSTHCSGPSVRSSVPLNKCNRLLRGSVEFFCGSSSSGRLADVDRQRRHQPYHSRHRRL
#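 Cysteine protease activity tested under reducing, mildly acidic conditions (100 mM sodium acetate pH 5.5, 5 mM DTT) plus 0.01% Triton X-100. Cruzain 1.5 nM; substrate Z-FR-AMC 2 uM; 15 min compound preincubation at room temperature.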
# LASV entry inh = blocks Lassa virus binding to or entry into cells; Lassa virus pseudotype entry inhibition, cell reporter; control for the full effect not named in the record; Potency, µM (series often up to 37.9 µM), without a hit: at the top dose activity change, negative = inhibition, hits mostly inhibitors; 300,000 tested, 1.2% active; active means well fitted inhibition curve with a large enough effect; inconclusive means small, poorly fitted or top-dose-only effect, or effect the other way; inactive means flat fitted curve, though single readings scatter; tested in HEK293 cells; note: % is set by controls: 0 for no effect and ±100 for the full control effect; nearly all actives have a fitted effect of over 50% in size; luciferase read-out
# 2A StopGo = FMDV 2A StopGo reporter, luciferase signal; human cells with a luciferase reporter of 2A StopGo recoding; control for the full effect not named in the record; Potency, µM (titrated, usually from 57.9 µM), for the others: at the highest dose signal change, negative = less light; 410,000 tested, 1.2% active; AID 1159524; active = well fitted falling curve with a large enough effect; inconclusive = small, poorly fitted or top-dose-only effect; inactive = no such curve, though single readings can be large or run the other way; tested in HEK293T cells; note: % is set by controls: 0 for no effect and ±100 for the full control effect; nearly all actives have a fitted effect of over 45% in size; luciferase light after 4 h
# SARS PLP yeast = SARS-CoV PLP inhibition in yeast; Potency, µM (series often up to 32.9 µM), for inactives: top-dose activity, positive = growth rescue; AID 485353; S. cerevisiae expressing SARS-CoV PLpro, growth rescue; control for the full effect not named in the record; 330,000 tested, 0.19% active; active means well fitted rising curve with a large enough effect; inconclusive means small, poorly fitted or top-dose-only effect; inactive means no such curve, though single readings can be large or run the other way; note: 0% is about no effect; nearly all actives have a fitted effect of over 55% in size; growth read by luminescence after 48 h
# MARV entry inh = Marburg virus entry inhibition. Marburg virus pseudotyped entry inhibition, cell reporter; control for the full effect not named in the record; about a third of the inactives were read at about 46 µM. Potency, µM (top dose mostly 37.8 µM), for the others: at the highest dose activity change, negative = inhibition, actives largely listed as inhibitors. 300,000 tested, 1.8% active; active = well fitted inhibition curve with a large enough effect; inconclusive = small, poorly fitted or top-dose-only effect, or effect the other way; inactive = flat fitted curve, though single readings scatter; tested in HEK293 cells; about a fifth of its hits are not listed in these tables; note: % is set by controls: 0 for no effect and ±100 for the full control effect; luciferase read-out
# Cruzain inh noDet = blocks cruzain activity in detergent-free assay | P25779 | purified cruzain, Z-FR-AMC fluorescence, no detergent | Potency, µM, inactives show max response, negative = inhibition, hits mostly inhibitors | 200,000 tested, 2.3% active;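 note: plate controls were enzyme without inhibitor for no effect and buffer without enzyme for full effect; nearly all actives have a fitted effect of over 40% in size; top concentration of the series not given in the record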
#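 Purified cruzain at 1.5 nM, pre-incubated 15 min with compound at room temperature in 100 mM sodium acetate pH 5.5, 5 mM DTT, 0.00005% Triton X-100. Reaction started with 2 uM Z-FR-AMC; AMC fluorescence increase over 60 s gives rate.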
# * marks the source's active call; other numbers are inactive results; ? = inconclusive; nt = not tested or not shown; & = joins results of further samples; [ ] = dose if it differs, or a comment. Unless noted, calls come from the whole dose curve; as a rule, active = well fitted curve in the direction sought with a large enough effect; inconclusive = small, poorly fitted or top-dose-only effect, or another doubt; inactive = no such curve, though single readings can be large; an effect the other way counts as inactive or inconclusive. Potency is the fitted concentration of half-maximal effect.
SMILES,NS1 inh,RE007 growth inh,Cruzain Triton,LASV entry inh,2A StopGo,SARS PLP yeast,MARV entry inh,Cruzain inh noDet
CCN(CC)CCCNC(=O)C1c2ccccc2C(=O)N1Cc1ccc(C)cc1 (configuration not stated),12%,-11%,4.9%,?,6%,-2%,10%,-1%
CC(=O)c1c(O)cc(C(C)C)n(-c2ccccc2)c1=O,-24%,5%,-1.5%,-16%,-8%,11%,0%,-4%
NCc1nc(-c2ccc(Cl)cc2)no1,10%,-2%,nt,nt,11%,1%,nt,nt
c1ccc(-c2cc(-c3ccccc3)[n+](-c3ccccc3)c(-c3ccccc3)c2)cc1,-5%,-9%,nt,?,18µM*,1%,?,nt
COc1ccc(NC(=O)N2CCCC2C(=O)NC23CC4CC(CC(C4)C2)C3)cc1 (configuration not stated),8%,-3%,nt,nt,5%,0%,6%[46.1 µM],nt
O=S(=O)(c1ccc(Br)cc1)c1nc(-c2ccco2)oc1SCc1ccccc1Cl,nt,nt,-0.8%,-14%[46.1 µM],-5%,nt,-10%[46.1 µM],11%
CN(C)CCCN1C(=O)c2cc3ccccc3cc2C1=O,26%,3%,nt,nt,-4%,1%,nt,nt
N#CC1=C(N2CCOCC2)/C(=C\c2ccccc2)CC1,-1%,7%,-3.9%,-3%,-30%,-16%,1%,-13%
CCOC(=O)CSc1nc(C)[nH]c1[N+](=O)[O-],2%,26%,nt,15%,-23%,1%,18%,nt
Cc1ccccc1C(=O)Oc1cc(-c2ccc3c(c2)OCO3)cc(=O)c2c(C)oc(C)c12,nt,nt,-8.8%,14%[46.1 µM],-3%,nt,5%[46.1 µM],20µM*
Cc1cccc(-c2cc3nc4c(c(N5CCC6(CC5)OCCO6)n3n2)CCCC4)c1,-57%,2%,nt,3%,20%,nt,?,nt
O=C(CSc1nnc(NC(=O)c2cccc(Cl)c2)s1)NCC1CCCO1 (configuration not stated),16%,13%,nt,?,13%,-2%,6%,nt
Cc1ccc(OCCNS(=O)(=O)c2ccc(N3CCCC3=O)cc2)cc1C,-1%,8%,-2.5%,?,nt,-2%,?,-4%
O=S(=O)(c1cccc2nonc12)N1CCN(c2cccc(Cl)c2)CC1,-1%,-5%,-2.8%,-9%,-2%,0%,0%,-5%
CCOC(=O)C1CCCN(S(=O)(=O)c2cn(C)c(=O)n(C)c2=O)C1 (configuration not stated),-8%,-7%,3.4%,nt,-17%,-2%,nt,-2%
Cc1c(=O)n(OCc2ccccc2F)c2ccccc2[n+]1[O-],?,-21%,-15%,23%,-10%,-1%,24%,-18%
Cc1cc(/C=N/Nc2ccc([N+](=O)[O-])cn2)c(C)n1-c1ccccc1,6%,7%,-2.0%,16%,15%,-9%,-18%,4µM*
O=[N+]([O-])c1ccc(NCCNc2ccc([N+](=O)[O-])cc2)cc1,nt,5%,nt,-9%[46.1 µM],-19%,nt,6%[46.1 µM],nt
Cc1ccc2c(CC(=O)Nc3c(C(=O)c4ccc(C)c(F)c4)oc4ccccc34)coc2c1,nt,nt,5.5%,15%[46.1 µM],-2%,nt,21%[46.1 µM],-22%
CCCOP(=O)(OCCC)C(Nc1ccc(C(C)C)cc1)c1ccc([N+](=O)[O-])cc1 (configuration not stated),-59%,3%,-4.6%,?,?,-24%,?,?
Cn1c(CN2CCOCC2)nnc1SCC(=O)Nc1cccc(C(F)(F)F)c1,12%,-1%,nt,2%,-15%,2%,?,nt
O=C(c1ccccc1)N1CCSC1=S,-5%,?,1.0%,13%,-22%,-12%,?,-1%
COc1cc2c(C(=O)NCCN(C)C)cn(CC(C)C)c(=O)c2cc1OC,-2%,-3%,nt,nt,10%,-1%,nt,nt
N/C(=N\OC(=O)C1CCCCC1)c1cccnc1,5%,?,0.3%,21%,31%[activator],-5%,23%,-1%
Cc1ccc(/C=C(\C#N)C(=O)NC(C)C)o1,2%,-8%,nt,10%[46.1 µM],23%,-2%,26%[46.1 µM],nt
SMILES,NS1 inh,RE007 growth inh,Cruzain Triton,LASV entry inh,2A StopGo,SARS PLP yeast,MARV entry inh,Cruzain inh noDet
CC12CCC(=O)N1C(C(=O)Nc1nc(-c3ccc(F)c(F)c3)cs1)CS2 (configuration not stated),nt,3%,nt,15%,?,17%,-21%,nt
CC(C)(C)OC(=O)CC[C@@H](C(=O)N1CCN(C(=O)OC(C)(C)C)CC1)n1cc(C(CO)NC(=O)OC(C)(C)C)nn1 (some centres not stated),4%,-12%,nt,nt,-26%,3%,nt,nt
CC(C)CC(=O)Nc1nnc(S(=O)(=O)N2CCCCCC2)s1,-8%,6%,-1.7%,-2%[46.1 µM],5%&-3%,1%,nt,10%
COc1cc(-c2nnc(SCC3(c4ccc(Br)cc4)OCCO3)o2)cc(OC)c1OC,5%,-4%,-1.3%,?,-27%,-3%,?,?
CCCN1CCN(C2CCCCC2NS(=O)(=O)c2ccccc2)CC1 (configuration not stated),-16%,-13%,nt,-2%[46.1 µM],5%,-1%,?,nt
CC(=O)N/C(=C\c1ccccc1)C(=O)OCc1ccccc1,4%,-3%,nt,-11%[46.1 µM],-4%,0%,13%[46.1 µM],nt
CCNc1ccc(C(=O)OCC(=O)N(Cc2ccccc2)C(C)(C)C)cc1[N+](=O)[O-],14%,0%,-4.6%,-36%,-24%,13%,-27%,0%
CN1CCN(S(=O)(=O)c2ccc(NC(=O)C3CCCCC3)cc2)CC1,-15%,-5%,0.2%,6%,?,nt,14%,1%
Cc1ccc(NC(=O)CN2C(=O)C(c3ccccc3)=NC2(C)C)cc1C,nt,nt,-4.1%,17%[46.1 µM],-12%,nt,0%[46.1 µM],-9%
O=C(CCS(=O)(=O)c1cc(Br)cc2c1N(C(=O)C1CC1)CC2)Nc1ccc(C(F)(F)F)cc1,nt,nt,0.1%,9%[46.1 µM],-1%,nt,8%[46.1 µM],18%
C[C@H](NC(=O)c1ccco1)C(=O)Nc1ccc(S(=O)(=O)N2CCCC2)cc1,-7%,4%,6.8%,-5%,8%,2%,?,-13%
O=C(Cc1sc(-c2ccccc2Cl)nc1-c1ccccc1)Nc1ccccc1,9%,15%,7.5%,?,?,8%,?,13µM*
O=C(Cc1ccccc1)NN1C(=O)C2C3C=CC(C3)C2C1=O (configuration not stated),11%,-6%,5.2%,28%,-24%,1%,2%,4%
Cc1ccc(S(=O)(=O)Cn2nnnc2CN2CCOCC2)cc1,-1%,-11%,-1.4%,-15%,nt,4%,27%,12%
N#C/C(=C\c1ccc(Sc2ccc(Cl)cc2)o1)c1nc2ccccc2[nH]1,-38%,0%,-0.8%,-16%,-30%,-34%,?,?
COC(=O)CCC(=O)NC1CC(C)(C)Cc2c1cnn2-c1ccccc1 (configuration not stated),-2%,-4%,nt,nt,-4%,-2%,nt,nt
O=C(O)c1ccc2c(c1)ncn2C1CCCCC1,4%,-3%,0.1%,3%,nt,?,4%,-2%
Cc1ccc2c(c1)C=CC(C#N)N2C(=O)c1ccccc1 (configuration not stated),0%,-3%,-4.5%,?,?,11µM*,?,-2%
COc1cc(C(=S)N2CCOCC2)ccc1OS(=O)(=O)c1ccc(Cl)cc1,-8%,10%,nt,nt,-1%,17%,nt,nt
COc1ccc(-c2nc3c4ccccc4n(CC(=O)Nc4ccc(C(C)C)cc4)c(=O)n3n2)cc1,nt,nt,0.7%,25%[46.1 µM],11%,nt,nt,-11%
Cc1csc(NC(=O)c2ccccc2C(=O)O)n1,3%,10%[3.69 µM],5.8%,-2%,12%,-1%,6%,15%
O=C(O)[C@H](Cc1ccccc1)N1C(=O)c2ccncc2C1=O,-11%,14%,10.0%,7%,21%,14%,3%,7%
CCN(C(=O)CSc1nnnn1C)C1CCCCC1,nt,0%,nt,-2%,-3%,0%,7%,nt
COc1ccc(NC(=O)N2CCCn3nc(C)cc32)cc1OC,nt,nt,-1.0%,-3%[46.1 µM],-8%,nt,nt,-2%
COc1ccccc1Nc1nc(N)nc(CSc2nc(C)cc(C)n2)n1,-15%,-3%,-1.4%,0%,-14%,9%,-2%,-3%
SMILES,NS1 inh,RE007 growth inh,Cruzain Triton,LASV entry inh,2A StopGo,SARS PLP yeast,MARV entry inh,Cruzain inh noDet
O=C1C(O)=CC(=C(c2ccccc2)c2ccccc2)c2ccccc21,nt,-1%,nt,-3%[46.1 µM],0%,nt,?,nt
COc1ccc(NC(=S)N2CCC(Cc3ccccc3)CC2)cc1OC,7%,0%,nt,?,-14%,5%,?,nt
NP(=O)(OCC(F)(F)F)Oc1cccc2ccccc12 (configuration not stated),-5%,1%,-4.6%,-1%,13%,-9%,12%,0%
CCOC(=O)CSc1ccc(S(=O)(=O)N(CC)CC)cc1[N+](=O)[O-],nt,-13%,nt,5%[46.1 µM],?,2%,-29%[46.1 µM],nt
O=C(NCc1cccc(C(F)(F)F)c1)C1CC(c2c(Cl)cccc2Cl)=NO1 (configuration not stated),-4%,?,-5.9%,nt,-20%,-15%,nt,-2%
O=C(Cn1c(=O)c(=O)n(Cc2ccccc2)c2ccc(Cl)cc21)Nc1cccc(F)c1,-7%,nt,-5.8%,?,-7%,-1%,0.79µM*,-2%
COCCn1c(SCC(=O)c2ccc(F)cc2)nnc1C(C)C,-76%,-21%,2.8%,-16%,-3%,7%,1%[46.1 µM],-4%
COc1ccnc(Oc2cc(Cl)cc(Cl)c2)c1C#N,-2%,7%,nt,-1%[46.1 µM],3%,-2%,15%[46.1 µM],nt
NS(=O)(=O)c1cc(C(=O)O)c(NCc2ccco2)cc1Cl,nt,1%[18.4 µM],-1.0%&7.7%&-0.5%&-1.9%,nt,-19%&-4%,nt,nt,-3%&-2%&-9%&-12%
Nc1[nH]n(-c2ccccc2)c(=O)c1N=Nc1ccc2c(c1)OCCO2,-5%,-25%,nt,?,-53%,-2%,?,nt
O=C(Nc1cnccc1C(F)(F)F)NC1CCCCC1,0%,3%,nt,-18%,-6%,1%,-6%[46.1 µM],nt
Cc1ccc(N(CC(=O)NCc2ccc3c(c2)OCO3)S(C)(=O)=O)cc1,-5%,0%,6.9%,12%,56%[activator],0%,4%,1%
Cn1nc(C(=O)N2CCN(S(=O)(=O)/C=C/c3ccccc3)CC2)c2ccccc2c1=O,5%,2%,-1.5%,-4%,-28%,7%,?,2%
Cc1ccc(C(=O)Nc2cccc(C(=O)NCc3ccccc3)c2)cc1,-11%,-17%,-5.3%,-13%,-14%,11%,-12%,-4%
